Assay outcomes: PubChem, ICCB-Longwood Screening Facility, Harvard Medical School
Mtb MbtI inh = MbtI salicylate synthase inhibitors, primary screen, biochemical, fluorescence intensity. P9WFX0. purified MbtI enzyme, fluorescence intensity read-out. inhibition, %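 (about 17 µg/mL by stock and volumes)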. 100,000 tested, 0.89% active. AID 493033, 2011;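 active = above 50% in both replicates, above 80% if mildly self-fluorescent; inactive = the rest, strongly fluorescent compounds included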;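 note: 0% = mean of negative and 100% = mean of positive controls; one replicate is shown; some compounds called inactive have numbers as strong as hits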
Mtb MenB inh = M. tuberculosis MenB inhibitors, primary screen, biochemical, absorbance; 1,4-dihydroxy-2-naphthoyl-CoA synthase (Mycobacterium tuberculosis (strain ATCC 25618 / …; MenB enzyme assay, absorbance read-out; some hits fall short of the stated cut; inhibition, %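 (about 12 µg/mL by stock and volumes)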; 100,000 tested, 0.43% active; AID 540299, 2011;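 active = mean of two replicates above 30%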;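 note: 0% = no compound and 100% = wells with inactive enzyme; the first replicate is given; strong numbers were not always called active; inactives centre near -10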
Target sequence (P9WNP5 whole entry, looked up): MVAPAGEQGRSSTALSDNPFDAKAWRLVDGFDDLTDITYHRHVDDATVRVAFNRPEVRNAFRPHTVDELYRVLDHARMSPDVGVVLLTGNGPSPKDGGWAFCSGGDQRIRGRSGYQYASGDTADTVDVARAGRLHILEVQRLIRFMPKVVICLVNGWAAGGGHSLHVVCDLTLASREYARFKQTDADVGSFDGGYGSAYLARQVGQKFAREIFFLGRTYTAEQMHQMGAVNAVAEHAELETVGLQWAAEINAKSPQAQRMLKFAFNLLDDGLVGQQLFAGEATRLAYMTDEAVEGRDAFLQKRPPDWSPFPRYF
Polio RdRp inh = poliovirus RdRp elongation inhibitors, primary screen, biochemical, fluorescence polarization, total intensity | 150,000 tested, 0.66% active | Genome polyprotein (Poliovirus type 1 (strain Mahoney)), P03300 | poliovirus polymerase elongation; stronger effect = lower value | % elongation, % (compound at 16.7 µg/mL); in the data active = % elongation below about 90%; note: some results filed as inactive read as strong as hits
Target sequence (P03300 1749-2209 limits assumed): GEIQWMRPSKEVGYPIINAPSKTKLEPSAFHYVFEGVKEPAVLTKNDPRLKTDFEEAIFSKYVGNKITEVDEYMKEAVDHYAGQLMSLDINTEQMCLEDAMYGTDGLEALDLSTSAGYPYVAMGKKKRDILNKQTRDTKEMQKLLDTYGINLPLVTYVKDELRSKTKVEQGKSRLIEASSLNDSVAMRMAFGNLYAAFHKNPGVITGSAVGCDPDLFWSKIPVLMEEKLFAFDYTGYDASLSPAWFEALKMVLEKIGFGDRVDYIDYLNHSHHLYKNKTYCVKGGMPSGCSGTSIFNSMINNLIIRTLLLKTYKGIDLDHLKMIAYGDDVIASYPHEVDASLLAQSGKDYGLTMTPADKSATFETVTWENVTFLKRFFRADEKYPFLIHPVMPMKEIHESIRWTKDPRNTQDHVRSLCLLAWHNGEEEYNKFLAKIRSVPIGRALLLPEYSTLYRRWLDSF
Polio RdRp inh intensity = also measured in Polio RdRp inh; calls as there; % elongation; measured here: total intensity read-out; formula for this scale not given here;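 total fluorescence in place of polarization; lower means less elongation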
An asterisk follows results filed as active; . = no result given.

SMILES | Mtb MbtI inh | Mtb MenB inh | Polio RdRp inh | Polio RdRp inh intensity
NC(=O)c1ccccc1OCC(=O)N1N=C(c2cccs2)CC1c1cccs1 (configuration not stated) | 2 | -20 | 104 | 108
O=C(CSc1nc2ccccc2n1-c1ccccc1)NC1CCCC1 | 20 | . | 98 | 99
C=CCn1cnnc1SCC(=O)NCC(F)(F)F | 7 | 15 | 106 | 105
CC(C)CCn1c2ccccc2c2ccccc21 | -83 | -1 | 101 | 104
CS(=O)(=O)NCC(c1ccc2c(c1)OCO2)N1CCN(c2ccccc2)CC1 (configuration not stated) | -11 | -11 | 99 | 99
O=C(c1cn[nH]c1C1CCNCC1)N1CCN(c2ccccc2)CC1 | 4 | -1 | 102 | 98
N#CCC(=O)c1c[nH]c2ccccc12 | 37 | -36 | 101 | 102
O=C(C1CCCN(Cc2cccs2)C1)N1CCCCCC1 (configuration not stated) | -2 | 4 | 103 | 101
CCOC(=O)C1(C#N)C(C#N)(C(=O)OCC)C1(C#N)C(=O)OCC (configuration not stated) | . | -11 | 103 | 104
Nc1nc(Nc2ccccc2)n(-c2ccccc2)c(=O)n1 | 12 | -13 | 103 | 91
O=C(NC(Oc1ccccc1)(C(F)(F)F)C(F)(F)F)Oc1ccccc1 | -11 | -10 | 109 | 106
CCn1cc(CCC(=O)NC(C)c2ccccc2)c2ccccc21 (configuration not stated) | -11 | -22 | 106 | 110
Cc1ccc(-n2c(=O)/c(=C\c3ccc4c(c3)OCO4)s/c2=C(/C#N)C(=O)NCCN2CCOCC2)c(C)c1 | -7 | -11 | 91 | 130
COc1cc(Cl)c(C)cc1NC(=O)CC1CCCC1 | 3 | -7 | 106 | 103
O=C(Nc1ccccc1)N(Cc1ccccc1)c1cccc2ccccc12 | -3 | -21 | 116 | 108
C=CCn1c(CNC(=O)c2cccs2)nnc1SCC(=O)Nc1ccc(C(=O)O)cc1 | 7 | 3 | 99 | 101
CCC(C)NC(=O)C1CCCN(c2nc(-c3ccc(OC)cc3)no2)C1 (configuration not stated) | -10 | -5 | 102 | 106
CC(C)Nc1nc(-c2ccccc2)nc(-n2ccnc2)n1 | . | -10 | 99 | 105
CCCCN1C(=O)/C(=C/N(C(C)=O)c2ccccc2)SC1=S | -9 | -6 | 101 | 104
CCCn1c(SCC(=O)N2CCCc3ccccc32)nnc1C(C)C | -9 | 16 | 99 | 101
CC(C(=O)NC1CCCC1)N(c1ccc(F)cc1)S(C)(=O)=O (configuration not stated) | -21 | -2 | 103 | 102
C=CCN1C(=O)Cc2c1nc(N)c1c(N)nc(N3CCN(C(=O)c4ccco4)CC3)c(C#N)c21 | -42 | 15 | 106 | 122
CN(C)N1C(=O)c2cccc3c(Br)ccc(c23)C1=O | 4 | -14 | 104 | 106
c1ccc2c(c1)CN1CCCC1=N2 | -13 | -36 | 106 | 105
CC(C)C(=O)Nc1ccc(CN2CCCCC2)cc1 | -2 | 6 | 101 | 100
O=C(CSc1ncccn1)NC1CCCCCC1 | 0 | . | 103 | 96
O=S(=O)(c1cccc(F)c1)N1CCN(CC(O)COC(c2ccccc2)c2ccccc2)CC1 (configuration not stated) | -3 | -20 | 99 | 102
CC(=O)Oc1cc(OC(C)=O)c2c3c(c(=O)oc2c1)CCCC3 | -311 | 0 | 100 | 102
Cc1cccc(C)c1Nc1c(-c2cc(Br)ccc2O)nc2nc[nH]n12 | 0 | -6 | 101 | 104
O=C(CN1CCc2ccccc2C1)N(C1CCCCC1)C1CCS(=O)(=O)C1 (configuration not stated) | -4 | -21 | 102 | 98
Nc1nccnc1C(=O)OCC(=O)c1csc(N2CCCCC2)n1 | -23 | -26 | 110 | 113
COc1cccc(NC(C)C(=O)N2CC(C)OC(C)C2)c1 (configuration not stated) | -11 | -26 | 106 | 114
CCOCC(O)CSc1ccccc1 (configuration not stated) | -20 | 0 | 99 | 103
O=C(O)CC12OC3C4C5CC(C6C5C3C61)C42 (configuration not stated) | 9 | -16 | 103 | 103
CCc1cc2cc(C(=O)Nc3ccccc3)sc2s1 | 4 | -22 | . | .
Cn1c(-c2ccccc2)c(C(=O)COC(=O)c2ccc(Br)o2)c2ccccc21 | 0 | -10 | 113 | 118
COC(=O)Nc1sc(C)cc1C(=O)OC | -3 | 3 | 99 | 104
CCOc1ccc2nc(SCC(=O)N3CCCC3=O)sc2c1 | -63 | -79 | 93 | 88
Cc1ccc(C(=O)N2CCSC2=S)cc1 | 10 | 0 | 101 | 101
O=C(Cn1cc(C(=O)C2CC2)c2ccccc21)NC1CC1 | 6 | -84 | 105 | 100
COC(=O)c1ccccc1-n1c(N)c(C#N)c(N)c(C#N)c1=S | 14 | -3 | 101 | 103
Cc1ccc(Sc2ncccc2C(=O)N2CCCCC2C(N)=O)cc1 (configuration not stated) | 9 | -23 | 104 | 105
Cn1c2ccccc2c2nnc(N3CCN(Cc4ccccc4)CC3)nc21 | -21 | -11 | 103 | 106
CNC(=O)CO/N=C/c1ccc(N(C)C)cc1 | -46 | -36 | 104 | 93
CN1CCC(N(C)S(=O)(=O)c2ccc(N)cc2)CC1 | -18 | -9 | 106 | 116
CC(C)(C)c1nn2cnnc2n(NC(=O)Nc2cccc(Cl)c2)c1=O | -4 | -9 | 105 | 108
CCOc1ccc(-n2c(N)c3c(N)nc(N(CC)CC)c(C#N)c3c(C#N)c2=S)cc1 | 10 | -117 | 104 | 117
CCN1C(=O)c2ccccc2Sc2ccc(NC(=O)N3CCCCC3)cc21 | -6 | -29 | 104 | 101
O=C(COC(=O)c1ccc2c(c1)OCCO2)Nc1cccc(Cl)c1 | -3 | -21 | 102 | 102
COC(=O)c1ccc(NC(=O)CC2C(=O)N(c3ccc(F)cc3)C(=O)N2C2CCCC2)cc1 (configuration not stated) | 6 | 0 | 99 | 103
COc1ccc(CNc2nc3nc(C)c(Cl)c(C)n3n2)cc1OC | -11 | -28 | 102 | 101
O=C(O)CCC(=O)Nc1ccc(CN2CCCC2)cc1 | . | 3 | 109 | 115
O=C(O)C1CC2C=CC1C21CC1 (configuration not stated) | 5 | -4 | 100 | 100
CCCn1c(CCC(=O)Nc2ccccc2C)nc2cc(S(=O)(=O)N3CCOCC3)ccc21 | -3 | -8 | 104 | 108
O=C1/C(=C/c2ccccc2)CCCc2ccccc21 | -3 | 4 | 104 | 107
CCOC(=O)c1cccc(C(=O)Nc2nc3ccc(OC)cc3s2)n1 | -3 | 7 | 100 | 99
O=S1(=O)c2cccc3cccc(c23)N1Cc1ccccc1F | -4 | -37 | 102 | 104
O=C(CCCSc1nc(-c2ccco2)cc(C(F)(F)F)n1)NC1CCCCC1 | -11 | -17 | 103 | 102
CCOc1ccc(NC(=O)CSc2nc3ccc(N4C(=O)c5ccccc5C4=O)cc3s2)cc1 | . | 1 | 103 | 110
c1ccc(Oc2ccc(NC3=NCCC3)cc2)cc1 | -5 | -16 | 103 | 102
Carrying on.
SMILES | Mtb MbtI inh | Mtb MenB inh | Polio RdRp inh | Polio RdRp inh intensity
O=C(NCC(O)CO)c1c(I)c(C(=O)NCC(O)CO)c(I)c(N(CCO)C(=O)CO)c1I (configuration not stated) | -8 | -7 | 104 | 102
CC(=C(CCOP(=O)(O)O)SC(=O)c1ccccc1)N(C=O)Cc1cnc(C)nc1N | -16 | -1 | 101 | 100
NC(=O)C1CCN(C(=O)CSc2nccc(-c3ccccc3)n2)CC1 | 1 | -52 | 102 | 105
O=C(OCCN1CCOCC1)C(c1ccccc1)c1ccccc1 | . | -9 | 104 | 106
CC(C)(C)C(=O)CN1C(=O)c2ccccc2C1=O | -10 | 10 | 106 | 106
O=C(Nc1cc(-c2ccc(Cl)cc2)nn1-c1ccc(F)cc1)C1CCC1 | -8 | -12 | 106 | 109
O=C(O)c1ccccc1C(=O)NCc1ccccc1Cl | -6 | -1 | 102 | 105
CCCCn1c2c(c(=O)n(C)c1=O)C(c1ccc(OC)cc1)N1CCCCCC1=N2 (configuration not stated) | -37 | 0 | 100 | 97
N#C/C(C(N)=O)=C1\Oc2c(cc(O)cc2-c2ccccc2)S1 | -5 | -15 | 99 | 107
CCOC(=O)c1cnn2c(NC(=O)c3c(Br)cnn3C)c(C#N)nnc12 | -11 | -135 | 101 | 102
COC(=O)c1c2c(n3ccc(C)cc13)C(=O)c1ccccc1C2=O | 8 | -5 | 99 | 132
Cc1cc(N2CCOCC2)cc(C)[n+]1[O-] | 17 | 46* | 101 | 102
O=C(OCCn1ncc2ccccc2c1=O)c1ccc2c(c1)CCO2 | -10 | -9 | 102 | 109
CNC(=O)/C=C/c1ccc(S(=O)(=O)N2CCOCC2)cc1 | 11 | 12 | 97 | 104
O=C(COc1coc(CN2CCN(Cc3ccccc3)CC2)cc1=O)N1CCCCC1 | -5 | -4 | 104 | 105
CCCNC(=O)Cn1c(=O)n(C)c2ccccc21 | 42 | -3 | 101 | 107
O=C(NC(=S)N1CCCC(C(F)(F)F)C1)c1ccc(F)cc1 (configuration not stated) | -18 | -10 | 102 | 101
N/N=C/c1ccc(S(=O)(=O)c2ccc(Cl)cc2)cc1 | 1 | -5 | 101 | 103
Cn1nc(N2CCN(S(=O)(=O)c3ccccc3)CC2)c(=O)n(C)c1=O | 23 | 3 | 103 | 102
Cc1cccc(CSCc2ccc(C(=O)NC3CCCC(C)C3C)o2)c1 (configuration not stated) | 15 | -14 | 101 | 96

Sorted by length of the SMILES (ascending): part of the list above.
SMILES | Mtb MbtI inh | Mtb MenB inh | Polio RdRp inh | Polio RdRp inh intensity
CC(C)(C)C(=O)CN1C(=O)c2ccccc2C1=O | -10 | 10 | 106 | 106
N/N=C/c1ccc(S(=O)(=O)c2ccc(Cl)cc2)cc1 | 1 | -5 | 101 | 103
O=C(OCCn1ncc2ccccc2c1=O)c1ccc2c(c1)CCO2 | -10 | -9 | 102 | 109
O=C(NC(=S)N1CCCC(C(F)(F)F)C1)c1ccc(F)cc1 (configuration not stated) | -18 | -10 | 102 | 101
O=C(Nc1cc(-c2ccc(Cl)cc2)nn1-c1ccc(F)cc1)C1CCC1 | -8 | -12 | 106 | 109
O=C(NCC(O)CO)c1c(I)c(C(=O)NCC(O)CO)c(I)c(N(CCO)C(=O)CO)c1I (configuration not stated) | -8 | -7 | 104 | 102

New compounds follow.
SMILES | Mtb MbtI inh | Mtb MenB inh | Polio RdRp inh | Polio RdRp inh intensity
O=C1CC(c2ccccc2Cl)Cc2c1cnn2-c1nc2ccccc2s1 (configuration not stated) | 22 | -18 | 100 | 101
COc1ccccc1/C(O)=C/c1nc2cc3c(cc2[nH]c1=O)n(C)c(=O)n3C | -31 | -63 | 101 | 174
Cc1ccc(NCC2OCc3ccccc3CO2)cc1 | 1 | 6 | 100 | 102
CN(C)C(CNC(=S)Nc1ccccc1)c1cccnc1 (configuration not stated) | -10 | -13 | 101 | 97
CC(C)Oc1cccc(NC(=O)Nc2ccccc2)c1 | -8 | -19 | 101 | 103
COc1cccc(NC(=O)N2CCN(c3nnnn3-c3ccccc3)CC2)c1 | -1 | 17 | 102 | 101
CCOC(=O)C1CCCN(C(=O)CSc2ccccc2Cl)C1 (configuration not stated) | 20 | . | 100 | 104
Cc1cc(C(=O)CSc2n[nH]c(COc3ccc(Cl)cc3)n2)c(C)n1-c1nccs1 | -5 | -46 | 103 | 108
Cc1nn(Cc2ccccc2)c(C)c1C(=O)OCC(=O)Nc1ccccc1SCC#N | -8 | -10 | 110 | 200
CN(C)C(=O)CN1CCNCC1 | 94 | -16 | 107 | 100
O=C1CN(C(=O)c2ccccc2C(=O)O)c2ccccc2N1 | -3 | . | 102 | 98
CCCn1c(C)cc(C(=O)COn2nnc3ccc(C(=O)OC)cc32)c1C | -3 | -3 | 106 | 99

Entries of single compounds from above. Order of values: Mtb MbtI inh | Mtb MenB inh | Polio RdRp inh | Polio RdRp inh intensity
Listed for `O=C1CN(C(=O)c2ccccc2C(=O)O)c2ccccc2N1` → -3 | . | 102 | 98
Listed for `O=C1CC(c2ccccc2Cl)Cc2c1cnn2-c1nc2ccccc2s1` (configuration not stated) → 22 | -18 | 100 | 101
Listed for `CCOC(=O)C1CCCN(C(=O)CSc2ccccc2Cl)C1` (configuration not stated) → 20 | . | 100 | 104
